Bioassay records from PubChem.
AF4-AF9 inh – blocks AF4 peptide binding to human AF9; P42568; AID 651704; AlphaScreen, biotin-AF4 peptide binding to FLAG-AF9; 350,000 compounds, 0.47% hits; inhibition, % at 10 µM;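 active = every replicate reaching a set inhibition limit, whatever the replicate mean, cut at about 25% in these data; inconclusive = mean inhibition reaches that limit but some replicates miss it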;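 also: 0% = plate neutral control median and 100% = total signal loss; the record names both 10 and 1 µM as test concentration; the first replicate is given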
FGF22 binding – FGF22 (human) thermal shift binding | calls only at 9.99 µM | recombinant FGF22 thermal shift, SYPRO orange fluorescence; percent of sucrose octasulfate shift, DMSO zero | 340,000 compounds, 1.5% hits | AID 651658 | Q9HCT0;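 active = melting point raised past a set limit in the mean and every replicate; inconclusive = no clear call; three in four hits are not shown here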
Target sequence (Q9HCT0 whole entry, looked up): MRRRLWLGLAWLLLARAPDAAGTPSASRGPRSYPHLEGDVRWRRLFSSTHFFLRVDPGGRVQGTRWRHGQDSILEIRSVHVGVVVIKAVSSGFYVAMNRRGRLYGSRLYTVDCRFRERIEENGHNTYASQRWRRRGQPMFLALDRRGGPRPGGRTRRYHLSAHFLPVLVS
UCH37 inh – human UCH37 deubiquitinating enzyme inhibition. Q9Y5K5. purified proteasome/UCH37, Ub-AMC cleavage fluorescence. inhibition, % (concentration not given with the values). 330,000 compounds, 0.33% hits;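 active = mean of two replicates above 20%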;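 also: 0% = compound-free wells with enzyme and 100% = wells lacking proteasome; stock transfer was 100 nL into about 20 µL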
Target sequence (Q9Y5K5 whole entry, looked up): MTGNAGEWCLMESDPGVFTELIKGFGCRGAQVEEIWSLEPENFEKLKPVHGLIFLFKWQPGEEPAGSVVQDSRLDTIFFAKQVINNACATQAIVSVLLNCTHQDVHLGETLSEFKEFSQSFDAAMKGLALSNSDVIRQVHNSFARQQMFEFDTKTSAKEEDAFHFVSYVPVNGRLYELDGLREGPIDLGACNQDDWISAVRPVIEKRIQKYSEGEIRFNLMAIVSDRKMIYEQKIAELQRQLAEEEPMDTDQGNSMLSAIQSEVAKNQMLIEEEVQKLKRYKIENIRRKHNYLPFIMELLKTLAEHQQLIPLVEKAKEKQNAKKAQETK
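assay system = human UCH37 enzyme supplied as purified proteasome complex | amount = proteasome at 0.15 nM in the dispensed enzyme solution | schedule = 30 min compound-proteasome preincubation then 25 min substrate reaction, room temperature | measured by = fluorescence, ex 355 nm, em 460 nm | benchmarks = no-proteasome wells (full inhibition) and compound-free wells (no inhibition)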
HNF4A DNA FP – change in binding of human HNF4 alpha to DNA; HNF4a-FITC DNA binding, fluorescence polarization, 1 h; activity change, % at 10 µM; 360,000 compounds, 0.3% hits; AID 1224865; in the data active = activity change above about 30%, passing the limit was not always enough;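 also: controls were the assay level and a saturating level of protein; the project sought stronger binding though the title names inhibitors; some compounds called inactive have numbers as strong as hits; positive values seem to mean higher polarization but the record does not say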
Target sequence (P41235 whole entry, looked up): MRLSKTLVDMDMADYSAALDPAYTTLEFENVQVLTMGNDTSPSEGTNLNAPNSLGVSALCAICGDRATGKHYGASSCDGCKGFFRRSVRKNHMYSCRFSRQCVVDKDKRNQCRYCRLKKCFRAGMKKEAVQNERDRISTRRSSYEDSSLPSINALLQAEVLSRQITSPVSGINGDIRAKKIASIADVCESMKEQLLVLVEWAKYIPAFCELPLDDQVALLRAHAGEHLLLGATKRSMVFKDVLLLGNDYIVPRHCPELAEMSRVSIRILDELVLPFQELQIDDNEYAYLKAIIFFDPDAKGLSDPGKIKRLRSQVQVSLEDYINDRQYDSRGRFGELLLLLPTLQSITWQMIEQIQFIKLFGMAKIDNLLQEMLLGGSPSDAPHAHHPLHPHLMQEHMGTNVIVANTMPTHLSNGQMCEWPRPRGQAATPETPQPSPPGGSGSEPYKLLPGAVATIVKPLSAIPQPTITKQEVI
RanGTP-Impb inh – inhibitors of RanGTP-importin-beta interaction, primary screen, biochemical, FRET, CFP-Ran, YFP-importin-beta, homogeneous; cell-free CFP-Ran/YFP-importin-beta FRET ratio; inhibition, % (no concentration beside the values); 300,000 compounds, 1.1% hits; AID 2216;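 active = most replicates above 15%; inconclusive = exactly half above 15%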;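 also: 0% = DMSO wells and 100% = Ran loaded with GDP instead of GTP; wells of about 40 µL received 100 nL stock; the first replicate is given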
Vif A3G – HIV-1 Vif–A3G interaction blockers – biochemical, TR-FRET, GST-Vif 1-94, biotin-A3G peptide, dose response retest, primary screen (AID 1117319) | one-dose inhibition, %; IC50 in µM for titrated hits | TR-FRET GST-Vif / biotin-A3G peptide binding; higher % means a stronger effect; test concentration not given here; strong numbers were not always called active | 260,000 compounds, 0.57% hits;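 active = above the screen mean plus three standard deviations and confirmed in dose response; inconclusive = results disagree or hit not tested in dose response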;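 also: Vif residues 1-94 fused to GST binding biotinylated APOBEC3G peptide 110-148; 0% = full assay without inhibitor and 100% = GST in place of GST-Vif; retest series ran down from 100 µM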
E coli growth – inhibitors of Escherichia coli growth; OD600, 23 h; stronger effect = lower value; 330,000 compounds, 0.21% hits; AID 1053175; OD600 absorbance (no concentration beside the values);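 active = OD600 absorbance below the run mean of sample wells minus 3.6 SD, in any replicate, cut at about 0.56 in these data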;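 also: stock transfer was 300 nL into about 60 µL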
* marks the source's active call; other numbers are inactive results; i = inactive; ? = inconclusive; . = no result given; & = joins results of further samples.

SMILES	AF4-AF9 inh	FGF22 binding	UCH37 inh	HNF4A DNA FP	RanGTP-Impb inh	Vif A3G	E coli growth
COc1cc(CC(=O)OCC(=O)Nc2cc([N+](=O)[O-])ccc2Cl)cc(OC)c1OC	1.8	i	1.7	-1.2	2.8	4.7%	0.694
Cc1ccc(-n2cc(CN(C)Cc3nccn3C)c(-c3cccc(C)c3)n2)cc1	19.7	i	3.8	1.6	-2.3	-10.0%	0.625
Cc1ccccc1CNC(=O)/C=C\C(=O)O	.	.	1.6	5.7	0.9	.	0.645
CCOC(=O)Nc1sc2nc(C)cc(C)c2c1-n1cccc1	.	.	0.6	0.9	1.1	-3.8%	0.746
Cc1cc(C)cc(N(C(=O)CNC(=O)c2ccco2)C(C(=O)NC2CCCCC2)c2cccnc2)c1 (stereo unspecified)	0.4	i	-0.7	2.5	?	.	0.724
CC1COC(C)(CC(=O)NN2C(=O)c3ccccc3C2=O)O1 (stereo unspecified)	-1.4	i	0.3	2.8	2.6	9.2%	0.692
Cc1nc(SCC(=O)N2CC(C)OC(C)C2)nc(C)c1C (stereo unspecified)	.	.	1.9	0.0	-1.2	24.3%	0.711
COc1ccc(C)cc1S(=O)(=O)Nc1ccccc1C	.	.	6.1	-1.1	-0.8	-1.2%	0.746
CCOC(=O)C1(C)NC(c2ccc(OC)cc2OC)C2C(=O)N(c3cccc(OC)c3)C(=O)C21 (stereo unspecified)	.	.	5.8	-3.2	-1.5	-5.2%	0.727
Nc1nc(COC(=O)C2CC(=O)N(Cc3ccccc3Cl)C2)nc(Nc2ccccc2)n1 (stereo unspecified)	2.2	i	5.4	-2.2	.	-7.0%	0.684
CCCCNC(=O)C1COc2ccccc2O1 (stereo unspecified)	7.5	i	2.7	-1.9	-1.7	0.2%	0.637
Cn1nnnc1Sc1ncnc2scc(-c3cccc(S(C)(=O)=O)c3)c12	-1.7	i	0.7	2.8	.	.	0.711
CCN(CC)c1nc2n(c(=O)n1)CCN2CC	.	.	5.4	0.8	4.4	-4.1%	0.673
Cc1cc(C(=O)CSc2ncccn2)c(C)n1-c1cccc(F)c1	.	.	2.6	2.2	0.0	.	.
CC(=O)N1CCN(c2ccc([N+](=O)[O-])c(-n3nc(C)cc3C)c2)CC1	-19.2	i	1.8	-1.4	-5.6	.	0.702
CCC(=O)Nc1cccc(NC(=S)NC(=O)c2ccc(C)cc2)c1	-1.1	i	-0.9	2.6	-2.3	-17.0%	0.676
O=C(CN1CC(=O)Oc2ccccc21)OCC(=O)c1cccc(Br)c1	.	.	0.9	5.2	1.6	20.7%	.
Cc1ncn(-c2ccccc2)c1-c1ccccc1	-2.3	i	2.4	-0.2	-4.4	.	0.57
C[C@H](CO)N1C[C@H](C)[C@@H](CN(C)S(=O)(=O)c2ccccc2)Oc2c(NS(=O)(=O)c3ccc(F)cc3)cccc2C1=O	-3.1&-1.6	i	0.9	2.9	.	.	.
Cc1ccc(OCC(=O)NNC(=O)CSc2ncc(C#N)c(N)n2)cc1	.	.	0.8	3.8	2.3	-92.4%	0.671
C[C@H](NC(=O)CCCn1nnc2ccccc2c1=O)C(=O)O	1.2	i	2.9	-1.4	-1.7	.	0.692
Cc1ccnc(Nc2cccnc2)n1	-1.3	i	.	0.0	.	.	.
COc1ccc(CCN(C)C(=O)/C=C/c2c(Cl)nc3ccccn23)cc1OC	-0.5	i	1.8	4.2	-1.7	.	0.683
Cc1ccc(-c2csc(NC(=O)C[n+]3cc(-c4ccccc4)n4c3CCC4)n2)cc1	16.9	i	5.4	2.9	3.3	-5.7%	0.539
O=C(NCc1ccc2c(c1)OCO2)C1CC(=O)N(c2ccc(Cl)cc2)C1 (stereo unspecified)	-7.0	i	0.9	1.3	-2.6	-2.3%	0.695
CCOc1ccc(NC(=O)N(CCN2CCOCC2)Cc2ccc3c(c2)CCCN3CC)cc1	.	.	-2.4	1.3	0.7	16.5%&10.7%	0.776
COCCn1nnnc1C(c1cccs1)N1CCN(c2ccccc2)CC1 (stereo unspecified)	7.4	i	7.0	-2.8	?	-0.4%	0.676
Cc1ccc(S(=O)(=O)N2CCN(C(=O)[C@H](Cc3ccccc3)NC(=O)c3ccco3)CC2)cc1	2.6	i	3.3	0.6	.	.	0.693
CCn1c(SCC(=O)NC2CCCC2)nnc1-c1ccncc1	-0.8	.	3.2	-0.7	0.3	.	0.636
CCOc1ccc(-c2c(C(=O)N/N=C/c3sccc3C)nnn2-c2nonc2N)cc1	2.4	i	.	-9.4	0.7	.	.
Oc1ccc(Cl)cc1C=NN1CCCCCC1	13.3	i	1.6	0.5	.	-3.0%	0.653
CC(=O)Nc1ccc(S(=O)(=O)N2c3ccccc3C(C)=CC2(C)C)cc1	6.3	.	5.2	2.3	3.5	-8.1%	0.707
Cc1cc2[nH]c3ccccc3c2c(C)n1	3.5	i	-5.5	-1.9	-1.2	-6.8%	0.631
O=c1cc(N=Nc2ccc(Cl)cc2)[nH]c(=O)[nH]1	-14.7	i	4.7	5.7	-2.9	20.0%	0.685
CS(=O)(=O)Nc1ccc2[nH]c(=O)[nH]c2c1	.	.	2.5	-1.4	4.5	4.4%	0.633
COc1cc(C2C(C#N)=C(N)Oc3c2ccc2ccccc32)ccc1OCC(=O)Nc1ccccc1C (stereo unspecified)	.	.	3.2	3.1	-3.6	-1.5%	0.749
O=C(/C=C/c1cn(-c2ccccc2)nc1-c1ccccc1)Nc1ccc(C(=O)O)cc1	4.0	i	5.4	-3.4	-2.6	.	0.647
Cn1c(=O)[nH]c(=O)c2c1nc(CN1CCOCC1)n2CCCO	6.2	i	1.6	-0.5	-4.3	?	0.651
CC(=O)Nc1c(C)nn(C(C)=O)c1C	.	.	4.9	-1.1	-1.1	-0.5%	0.708
O=C(Nc1ccc(CN2CCOCC2)cc1)c1ccc(Cl)cc1Cl	-7.5	i	1.8	-1.6	-0.1	.	0.668
COc1ccc(CNS(=O)(=O)NCc2ccc(C)cc2)cc1OC	-1.8	i	4.9	0.5	1.5	0.9%	0.694
CN(C)S(=O)(=O)n1cc(/C=C(\NC(=O)c2ccccc2F)C(=O)N2CCCCC2)c2ccccc21	-1.6	i	.	-0.7	.	-1.3%	.
COc1cccc(CN2CCN(C(=O)c3cc(-c4cccnc4)nc4ccc(C)cc34)CC2)c1	5.6	i	0.1	2.5	0.5	0.0%	0.677
Cn1nc(C(F)(F)F)c(C#N)c1N1CCN(c2cccc(C(F)(F)F)c2)CC1	.	.	-3.5	-0.4	-2.4	?	0.719
Nc1nc(=O)c2ccccc2s1	-16.8	i	.	-0.8	.	.	.
Cc1ncoc1C(=O)N1CCCC(CCC(=O)NCc2ccc(F)c(F)c2)C1 (stereo unspecified)	-1.3	i	6.4	4.9	-4.9	-6.6%	0.686
COc1ccc(-c2cc([C@H]3[C@@H]4C=CCC[C@@]4(C)C(=O)N3Cc3ccccc3)ccc2F)cc1	1.6	i	3.1	-2.0	-11.1	0.6%	.
COc1ccccc1NC(=O)Cn1nnc(C(=O)NCCc2ccccc2)c1N	.	.	0.9	-0.8	-0.9	.	0.701
CC1(C)C(C=C(Cl)Cl)C1C(=O)OCc1cccc(Oc2ccccc2)c1 (stereo unspecified)	-3.6	i	1.9	1.3	.	.	0.684
CC1Cc2[nH]c(=S)[nH]c(=O)c2C(C(C)C)O1 (stereo unspecified)	-0.9	i	.	2.4	.	.	.
CCN(CC)S(=O)(=O)c1ccc(OC)c(NC(=O)CSc2cc(Cl)ccc2Cl)c1	.	.	5.1	2.4	-0.3	10.3%	0.753
CCS(=O)(=O)N1CCC(C(=O)NCCc2ccccc2)CC1	.	.	3.0	1.9	-1.5	0.9%	0.719
COc1ccc(-n2c(COc3ccccc3)nnc2SCC(N)=O)cc1	.	.	4.9	-0.6	0.8	-0.9%	0.697
CCOC(=O)c1c(NC(=O)CCN2CCOCC2)sc(C)c1-c1ccccc1	5.4	i	4.1	5.5	-1.5	69.9%	0.662
O=C(O)CC(CN1C(=O)c2ccccc2C1=O)c1ccccc1 (stereo unspecified)	3.7	i	0.9	6.2	2.4	.	0.703
CCC(CO)Oc1cc(NCc2ccc(Cl)cc2)c2ncn(C(C)C)c2c1 (stereo unspecified)	9.2	i	-0.2	0.6	.	.	0.633
CN1CCN(S(=O)(=O)c2cccc(C(=O)Nc3ccccc3N3CCOCC3)c2)CC1	-1.0	i	-0.4	7.1	2.3	4.5%	0.664
O=C(Nc1ccc(C(=O)O)cc1)/C(=C\c1cccc([N+](=O)[O-])c1)NC(=O)c1ccc(Br)o1	-2.4	i	5.4	-1.8	1.7	30.7%	0.674
C[C@H](NC(=O)c1[nH]cnc1C(=O)Nc1ccc(CNC(=O)OC(C)(C)C)cc1)C(=O)OCc1ccccc1	.	i	3.0	0.1	-3.0	?	.
O=C1CCCN1c1ccc(S(=O)(=O)NCc2ccc(F)cc2)cc1	-2.5	i	4.2	-0.7	-2.2	.	0.68

Whole records, looked up by structure. Values in the order: AF4-AF9 inh, FGF22 binding, UCH37 inh, HNF4A DNA FP, RanGTP-Impb inh, Vif A3G, E coli growth
CC1Cc2[nH]c(=S)[nH]c(=O)c2C(C(C)C)O1 (stereo unspecified) across the screens: -0.9, i, ., 2.4, ., ., .
Cc1cc2[nH]c3ccccc3c2c(C)n1 across the screens: 3.5, i, -5.5, -1.9, -1.2, -6.8%, 0.631

Continued.
SMILES	AF4-AF9 inh	FGF22 binding	UCH37 inh	HNF4A DNA FP	RanGTP-Impb inh	Vif A3G	E coli growth
COc1ccc2c(c1)CCCC21NC(=O)N(CC(=O)N2CC(C)OC(C)C2)C1=O (stereo unspecified)	-2.9	i	0.9	1.6	.	.	0.7
CC(C)Oc1ccc(NC(=O)c2ccncc2)cc1	.	.	.	-0.8	-2.6	-0.1%	.
Cc1cc(C)c(C)c(S(=O)(=O)N2C(=S)NC(=O)C2C(C)C)c1C (stereo unspecified)	.	.	6.5	-3.1	0.5	76.7%	0.749
CCN(CC)S(=O)(=O)c1ccc(N2C(=O)Nc3ccccc3N2O)cc1	.	.	0.7	4.6	0.7	.	0.671
CCn1c(CC(=O)Nc2ccc(C)cc2)nnc1SCC(=O)NCCc1ccccc1	.	.	2.1	0.8	4.7	3.3%	0.66
C[C@H](CO)N1C[C@H](C)[C@@H](CN(C)S(=O)(=O)c2ccc(F)cc2)Oc2ccc(NC(=O)NC3CCCCC3)cc2C1=O	-3.6&-2.7	i	5.2	-5.3	.	.	0.723
COc1cc(C(=O)N2C(=O)c3cccc(N)c3C2=O)cc(OC)c1OC	-1.3	i	-85.4	-5.5	8.7	18.8%	0.688
N#Cc1ccccc1S(=O)(=O)N1CCN(C(=O)C2COc3ccccc3O2)CC1 (stereo unspecified)	-1.9	i	2.0	-8.9	.	13.5%	0.714
COc1ccc(OC)c(-c2cc(C(=O)Nc3c(C)nn(Cc4ccc(Cl)cc4)c3C)no2)c1	.	.	-43.6	-5.4	-0.7	?	0.68
CCN(CC)C(C)C(=O)NCC1(c2ccccc2)CCOCC1 (stereo unspecified)	.	.	2.6	-1.3	6.2	3.1%	0.701
O=C(Cc1ccccc1)NCC(=O)N/N=C/c1cccnc1	-2.6	i	.	3.5	0.3	14.7%	.
CN(C)CCNC(=O)C(=O)NCC1OCCN1S(=O)(=O)c1ccc2c(c1)OCCO2 (stereo unspecified)	-22.4	i	5.4	-0.7	5.5	.	0.713
O=C(N/N=C/c1cc([N+](=O)[O-])ccc1O)c1ccc(COc2ccc3c(c2)CCC3)o1	0.5	i	.	-1.9	2.0	-3.6%	.
CC1(C)c2ccccc2N2CC(=O)N[C@@]21/C=C/C=C/c1ccccc1	7.7	i	4.2	4.8	4.5	-0.7%	0.668

Only part of the results is shown. The share of hits here may be higher or lower than overall.
